RecA splice inh: blocks M. tuberculosis RecA intein splicing; AID 2221; hit rate 0.75% among 290,000; cell-free RecA intein splicing, fluorescence; inhibition, %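 (about 9 µM by stock and volumes)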; P9WHJ3; in the data active means inhibition above about 30%; inconclusive means no clear call, values can overlap the other calls;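 further: 0% = vehicle wells and 100% = reference inhibitor control wells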
Target sequence (P9WHJ3 whole entry, looked up, canonical isoform): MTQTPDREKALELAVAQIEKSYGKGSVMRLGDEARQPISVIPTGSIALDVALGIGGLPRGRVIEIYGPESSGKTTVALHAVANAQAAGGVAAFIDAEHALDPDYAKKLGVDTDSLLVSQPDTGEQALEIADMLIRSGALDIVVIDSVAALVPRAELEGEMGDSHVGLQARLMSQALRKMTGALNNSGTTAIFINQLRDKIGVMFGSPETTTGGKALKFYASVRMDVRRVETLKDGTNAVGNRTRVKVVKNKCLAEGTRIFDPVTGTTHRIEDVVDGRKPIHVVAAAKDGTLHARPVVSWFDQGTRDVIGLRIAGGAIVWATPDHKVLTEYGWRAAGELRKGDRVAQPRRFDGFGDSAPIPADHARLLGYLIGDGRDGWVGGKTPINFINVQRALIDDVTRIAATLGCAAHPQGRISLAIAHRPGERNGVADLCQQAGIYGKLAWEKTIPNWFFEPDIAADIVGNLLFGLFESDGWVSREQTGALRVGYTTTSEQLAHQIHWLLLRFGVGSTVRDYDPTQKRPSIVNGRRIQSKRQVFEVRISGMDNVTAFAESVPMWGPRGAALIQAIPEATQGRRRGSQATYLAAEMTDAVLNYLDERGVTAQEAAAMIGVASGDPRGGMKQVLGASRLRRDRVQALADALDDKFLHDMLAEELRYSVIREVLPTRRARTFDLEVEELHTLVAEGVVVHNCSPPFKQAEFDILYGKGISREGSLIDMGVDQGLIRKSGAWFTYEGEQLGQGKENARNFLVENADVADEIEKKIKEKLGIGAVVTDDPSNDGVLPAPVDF
Mtb betalactam: beta-lactam sensitization of Mtb H37Rv. M. tuberculosis H37Rv growth with meropenem, percent inhibition; hits of this screen are not shown here. inhibition, % at 25 µM. hit rate 0.27% among 330,000;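 active means about 74% or more and at least 40 points above the plate without the antibiotic, then above 30% in a dose series; inconclusive means first-round hits that could not be retested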;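 further: growth measured after seven days incubation then overnight dye step; 0% = bacteria only wells and 100% = bacteria with antibiotic; twin plates without the antibiotic show which effects depend on it; some results filed as inactive read as strong as hits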
Arbovirus inh: arbovirus infection inhibition | hit rate 0.37% among 200,000 | inhibition, % at 10 µM | AID 1251 | arbovirus infection cell-based antiviral screen;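 active means inhibition from about 30%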;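 further: bluetongue infection of BSR cells; cell survival read as ATP light after 72 h; 0% = infected wells without compound and 100% = uninfected wells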
YopH PTP inh: inhibitors of Yersinia enterocolitica YopH tyrosine phosphatase | fluorescence Ex485/Em525 | inhibition, %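 (about 10 µM by stock and volumes)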 | hit rate 0.16% among 140,000 | AID 898;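 active means inhibition of 50% or more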;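 further: controls were vehicle for no effect and minimum signal wells for full effect; inactives centre near -20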
Mtb H37Rv: M. tuberculosis H37Rv growth inhibitors, H37Rv strain (AID 1626) | M. tuberculosis H37Rv growth inhibition; higher % means a stronger effect | inhibition, % at 10 µM, or IC50 in µM where a hit was titrated | hit rate 0.95% among 220,000;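 active means confirmed in a dose series; inconclusive means inhibition above 80% but not taken into the dose series; inactive means below 80% or under 30% at every dose of the series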;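 further: bacteria incubated seven days before Alamar blue readout; 0% = bacteria only wells and 100% = bacteria with antibiotic wells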
Arbovirus inh repeat: further read-out of Arbovirus inh, marked with its call; inhibition, %; measured here: 10K subset replicate screen; many hits read low in the repeat;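 first of two repeat runs on a subset; 0% = infected and 100% = uninfected wells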
Active calls of the source: *; ? = inconclusive; nt = no result given.

SMILES	RecA splice inh	Mtb betalactam	Arbovirus inh	YopH PTP inh	Mtb H37Rv	others
CCCCC1CCCOC(C(=O)NCCNCCO)(C(F)(F)F)C1 (stereo not given)	-0.1	-3	nt	nt	14%
CCC1CCCCN1CCCNC(=O)Cn1cnc2sc(C)c(S(=O)(=O)N3CCC(C)CC3)c2c1=O (stereo not given)	11	-1	nt	nt	nt
COc1ccccc1N(CC(=O)NC(C)(C)C)C(=O)CCC(=O)Nc1ccccn1	-1.7	0	nt	nt	nt
CCOc1ccc(C(=O)NC(=S)Nc2ccccc2N2CCC(C)CC2)cc1[N+](=O)[O-]	-0.7	14	3	-42	21%
O=C(CSCc1ccc(C(=O)O)cc1)Nc1ccccc1	-1.5	2	2	nt	2%
CCc1cccc(NC(=O)Cn2cc(C=O)c3ccccc32)c1	-2.1	1	10	nt	-3%
CCOC(=O)/C(Sc1nc(-c2ccccc2)cc(-c2ccccc2)c1C#N)=C(\C)O	4.6	11	nt	nt	nt
CC(=O)c1ccc(OCC(O)CN2C(C)(C)CC(O)CC2(C)C)cc1 (stereo not given)	-0.7	3	0	-58	1%	Arbovirus inh repeat=5
CC(=O)Nc1cccc(NC=C(C#N)C#N)c1	13	-4	1	nt	-3%
COC(=O)c1cc(NS(=O)(=O)c2ccc(N3CCOCC3)c([N+](=O)[O-])c2)cc(C(=O)OC)c1	2.2	-2	5	-19	4%
COc1ccc(N(C(C)=O)c2nc(C)cc(C)c2C#N)c(OC)c1	0.3	-1	8	nt	nt
c1ccc(-c2nccnc2-c2ccccc2)cc1	-2.5	18	nt	nt	-2%
O=C(COc1ccc(Cl)cc1)NCc1nnc(SCC(=O)NC2CCCCC2)o1	2.3	-3	-2	-28	-4%
COCCCN1CC(=O)N2C(c3ccccc3)c3[nH]c4ccccc4c3C[C@H]2C1=O (stereo not given in full)	-1.9	-4	nt	nt	nt
Cc1cc(C(=O)OCC(=O)Nc2ccc(F)c(F)c2F)c(C)o1	-1.0	0	7	nt	-4%
CCn1c(COc2c(C)cccc2C)nnc1SCC(=O)N1CCN(c2ccccc2)CC1	1.7	-1	-9	-20	4%
Cn1nc(C(=O)Nc2cccnc2)c2ccccc2c1=O	1.7	3	5	-27	-8%
Cc1cc(C)nc(N2CCCC(C(=O)NCc3cccc(C(F)(F)F)c3)C2)n1 (stereo not given)	-0.5	-5	-15	-50	-4%
Cc1nn(-c2ccccc2)c(C)c1NC(=O)COC(=O)c1ccccc1OC(F)F	-2.4	-3	nt	nt	nt
COc1ccc(C(=O)N/N=C(/C)c2cccc(NC(=O)c3ccncc3)c2)cc1OC	-1.9	2	nt	nt	nt
CCCCSc1nc2c(c(=O)[nH]1)CCC2	2.3	1	10	-21	4%
Cc1cccc(NC(=O)CNC(=O)c2ccco2)n1	-0.5	-1	nt	nt	nt
CS(=O)(=O)c1ccc(Cl)c(NC(=O)COC(=O)c2c(Cl)cccc2Cl)c1	-0.5	5	4	nt	44%
Nc1ccc(S(=O)(=O)NCc2ccccn2)cc1	-0.7	6	nt	nt	nt
O=C(Oc1ccc(N2C(=O)CCC2=O)cc1)c1ccccc1	1.2	-9	-5	-3	9%
C/C(=N\NC(=O)c1ccc(Br)cc1)c1ccccc1	-1.6	31	-8	-32	-4%
CC12CCCCC1=NC(c1ccc(Br)cc1)N2O (stereo not given)	1.9	-7	-5	-24	-6%
CC1c2nc3ccccc3n2C(CC(=O)NCc2ccccn2)C(=O)N1Cc1ccccc1 (stereo not given)	-11	-3	9	-44	0%
CC(=O)NN1C(=O)c2ccccc2NC1c1ccoc1 (stereo not given)	-4.2	-3	3	nt	-2%
O=C(O)c1ccc(Cl)c(S(=O)(=O)NC(Cc2ccccc2)C(=O)O)c1 (stereo not given)	2.3	3	12	nt	-2%
COc1ccc2[nH]c3c(c2c1)CCn1c-3nc2ccccc2c1=O	-23	-1	1	-12	nt
CCOC(=O)CCCNC(=O)COC(=O)/C=C/c1ccc2c(c1)OCO2	-3.8	7	2	nt	0%
Cc1nn(Cc2ccc(Cl)cc2)c(=O)n1N(C)c1ncc(C(F)(F)F)cc1Cl	5.2	-7	-11	-8	-7%
Cc1cccc(C2c3[nH]c4ccccc4c3CCN2C(=O)c2cc(CC(C)C)nc(C)n2)n1 (stereo not given)	7.8	4	-1	nt	8%
COc1ccc2nc(C3CCCCC3)c3c(c2c1)CCC3	7.3	74	nt	nt	5%
Cc1cccc(NC(=O)CSCC(=O)Nc2cccc(S(=O)(=O)N3CCCCCC3)c2)c1	-1.4	-2	nt	nt	nt
Cc1nc(SCC(=O)N(C)Cc2ccco2)c2c(C)c(C)sc2n1	5.6	-9	-4	-13	-4%
Cc1cccc2sc(N(CCCN(C)C)C(=O)CCc3ccccc3)nc12	-1.1	72	-35	-10	44%
Cc1ccc(S(=O)(=O)Cc2nnnn2-c2ccccc2)cc1	-0.7	-7	nt	nt	nt
Cc1ccc(CNC(=O)CSc2c3c(nc4cc(Cl)ccc24)CCCC3)o1	23	-6	3	-22	0%
O=C(O)CSCC(=O)N(Cc1ccccc1)c1nc(-c2ccccc2)c(-c2ccccc2)s1	-0.7	4	nt	nt	nt
Nn1c(SCc2c(F)cccc2F)nnc1-c1ccccn1	-4.8	-4	nt	nt	-11%
Cc1nc2ccccc2n1CC(O)COC1CCCCC1 (stereo not given)	-1.0	-8	4	-24	-6%
CC1=NC(C#N)=C(C#N)NC(C)(C)C1	-1.0	-5	6	nt	-5%
O=C(CSc1nnc2ccccn12)N1CCc2ccccc2C1	5.7	-11	2	-27	-4%	Arbovirus inh repeat=6
OC(CNCC1CCCO1)Cn1c2ccc(Br)cc2c2cc(Br)ccc21 (stereo not given)	1.7	100	-37	-21	43%
Cc1cc2c(cc1C)CSC(c1ccccc1OC(=O)C(C)(C)C)SC2	5.2	-11	5	-1	-1%
Nc1ccc(C2CCCc3nonc32)c2nonc12 (stereo not given)	2.4	-5	0	-17	-7%
COc1cccc(C(=O)Oc2ccc(/C=N/NC(=O)c3ccncc3)cc2OC)c1	3.9	98	nt	nt	nt
Cc1ccc(C(=O)NCC(=O)NCC(=O)OCC(=O)c2ccc([N+](=O)[O-])cc2)cc1	-5.0	-11	5	-24	-7%

Following part
SMILES	RecA splice inh	Mtb betalactam	Arbovirus inh	YopH PTP inh	Mtb H37Rv	others
CN(C)C(=O)C#Cc1ccccc1	0.0	0	nt	nt	-10%
O=C(CCNC(=O)c1ccccc1Cl)NCC(c1ccco1)N1CCCC1 (stereo not given)	-1.1	-11	nt	nt	nt
CCC(=O)Nc1nnc(-c2ccncc2)s1	nt	-9	10	-11	-6%
Cc1ccc(S(=O)(=O)N2CCCCC2C(=O)N(C)c2ccccc2)cc1 (stereo not given)	2.1	?	nt	nt	nt
CCOc1ccc(NC(=O)CN(C)CC(=O)Nc2cc(Cl)ccc2C#N)cc1OCC	1.8	1	9	-26	1%
CC1CC(C)CN(S(=O)(=O)c2cccc(C(=O)OCCN3CCCC3=O)c2)C1 (stereo not given)	-5.3	-9	8	-15	0%
COC1C/C(=N\O)C2OC(c3ccccc3)OCC2O1 (stereo not given)	-0.6	-1	2	-27	-10%
CCOC(=O)c1c(NC(=O)Cn2c(C)nc3ccccc32)sc2c1CCC2	1.5	-3	4	11	-1%
CCOC(=O)C(=O)NN=C(c1ccccc1)c1ccccc1	-2.5	-2	nt	nt	-3%
Cc1nc(N/C(N)=N/S(=O)(=O)c2ccc([N+](=O)[O-])cc2)nc2ccccc12	-0.3	84	4	-6	9.1µM*
COc1ccc(-c2csc(N(CC3CCCO3)C(=O)c3ccc(C)cc3)n2)cc1 (stereo not given)	-3.4	-9	4	-17	6%
O=C(O)COc1ccc(S(=O)(=O)N2CCCC2)cc1	2.0	-3	nt	nt	nt
COc1ccc(OCc2cccc(C(=O)Nc3cc(C)on3)c2)cc1	2.8	10	1	-19	5%
CCN(CC)CCN(Cc1cc2cc3c(cc2[nH]c1=O)OCCO3)C(=S)NC	-5.8	-5	nt	nt	nt
Cc1ccc(NC(=O)c2cnc(SCC(=O)NCC3CCCO3)n(C)c2=O)cc1C (stereo not given)	51*	84	nt	nt	nt
O=C(CSc1nnc(-c2ccc3c(c2)OCCO3)o1)NC1CCCCC1	1.9	6	nt	-21	-7%
Cc1ccc(S(=O)(=O)NCC(=O)N2CCC(C)CC2)cc1	0.2	0	-2	-40	9%	Arbovirus inh repeat=-1
CCCSc1ccc([C@H]2N[C@@](Cc3ccccc3)(C(=O)OC)[C@H]3C(=O)N(CC)C(=O)[C@@H]23)cc1	1.1	-5	nt	nt	nt
COc1cnc(-c2ccccc2)c(-c2ccccc2)n1	3.8	11	nt	nt	nt
COc1cc(NC(=O)c2cccs2)c(OC)cc1NC(=O)CCC(=O)Nc1ccc2ncccc2c1	-9.1	nt	-3	nt	3%

3 successive compounds already listed:
SMILES	RecA splice inh	Mtb betalactam	Arbovirus inh	YopH PTP inh	Mtb H37Rv	others
O=C(O)COc1ccc(S(=O)(=O)N2CCCC2)cc1	2.0	-3	nt	nt	nt
COc1ccc(OCc2cccc(C(=O)Nc3cc(C)on3)c2)cc1	2.8	10	1	-19	5%
CCN(CC)CCN(Cc1cc2cc3c(cc2[nH]c1=O)OCCO3)C(=S)NC	-5.8	-5	nt	nt	nt

Next entries:
SMILES	RecA splice inh	Mtb betalactam	Arbovirus inh	YopH PTP inh	Mtb H37Rv	others
CC(C(=O)NCCN1CCOCC1)c1ccc([N+](=O)[O-])cc1 (stereo not given)	0.5	0	-3	-13	-4%
COc1ccc(C2=COc3ccccc3C(=O)N2)cc1	-3.5	-5	0	nt	3%
CCN1CCN(C(=O)CN(CC)S(=O)(=O)c2ccc(Cl)cc2)CC1	-0.9	-2	4	-10	-4%
COc1c(N)c2ccccc2[nH]c1=O	-5.0	-16	6	-27	nt
O=C(Nc1nc(-c2ccc(S(=O)(=O)N3CCCC3)cc2)cs1)C1COc2ccccc2O1 (stereo not given)	4.9	-7	-4	-19	16%
Cc1ccc(CN=C2NC(=O)C(CC(=O)NCCc3ccccc3)S2)cc1 (stereo not given)	-0.4	-15	6	nt	-1%
COc1cc(C(c2c(C)[nH][nH]c2=O)c2c(C)[nH][nH]c2=O)ccc1OCc1ccc([N+](=O)[O-])cc1	95*	0	-5	-13	-1%
CCc1ccc(NC(=O)Cn2nc(C)c([N+](=O)[O-])c2C)cc1	0.5	-2	2	nt	11%
CCN(CC)CCNCc1cc(Br)ccc1OCC(=O)NCc1ccccc1	1.9	1	-2	nt	2%
COc1cc2c(cc1O)CC[C@@H]1[C@@H]2CC[C@]2(C)[C@@H](O)CC[C@@H]12	-1.2	0	-12	nt	0%

By substructure, the compounds so far containing a COOH group.
SMILES	RecA splice inh	Mtb betalactam	Arbovirus inh	YopH PTP inh	Mtb H37Rv	others
O=C(CSCc1ccc(C(=O)O)cc1)Nc1ccccc1	-1.5	2	2	nt	2%
O=C(O)c1ccc(Cl)c(S(=O)(=O)NC(Cc2ccccc2)C(=O)O)c1 (stereo not given)	2.3	3	12	nt	-2%
O=C(O)CSCC(=O)N(Cc1ccccc1)c1nc(-c2ccccc2)c(-c2ccccc2)s1	-0.7	4	nt	nt	nt
O=C(O)COc1ccc(S(=O)(=O)N2CCCC2)cc1	2.0	-3	nt	nt	nt

The results go on:
SMILES	RecA splice inh	Mtb betalactam	Arbovirus inh	YopH PTP inh	Mtb H37Rv	others
CCC(=NCCc1c[nH]c2ccccc12)c1c(O)n(C)c(=O)n(C)c1=O	1.4	-1	-17	-4	12%
CC1(C(=O)O)COC(c2ccc([N+](=O)[O-])cc2)OC1 (stereo not given)	-1.4	-3	-8	-16	2%
CC(=O)NN1C(=O)/C(=C\c2ccc(O)cc2)SC1=S	-1.2	5	-3	nt	-4%
C=CCN1c2ccccc2[C@]23C[C@@H](C(=O)OC)N(C(C)=O)C2=NC(C(=O)OC)=C(C(=O)OC)[C@H]13	-1.0	-3	nt	nt	-9%
CCN(CC(=O)Nc1ccc(C)c(F)c1)CC(=O)NC(C)C	0.2	-5	12	nt	4%
O=C(COC(=O)c1c2ccccc2cc2ccccc12)Nc1ncc(C(F)(F)F)cc1Cl	-1.7	9	6	-5	-5%
Cc1ccc(S(=O)(=O)N(C)C)cc1NC(=O)Nc1ccccc1F	0.6	3	nt	nt	-2%
Cc1ccc(-c2ccc(=O)n(CC(=O)Nc3cccc(C(=O)N4CCN(C)CC4)c3)n2)cc1	-1.0	4	8	-6	3%
CCN(CC)C(=O)CN(C)S(=O)(=O)c1cccc2nsnc12	0.5	1	10	-51	0%
Cc1ccn(CC(=O)N/N=C/c2cc([N+](=O)[O-])ccc2O)n1	-2.5	8	-24	-16	0%
O=C(COC(=O)/C=C/c1ccc(OC(F)F)cc1)NCCN1C(=O)CSC1=O	-1.2	7	5	nt	4%
Cc1ccc(CN2CCN(/N=C/c3ccc(N(C)C)cc3)CC2)cc1	-1.3	-11	nt	nt	-10%

The list is partial (hit frequency here may not be typical).
